High-throughput results: PubChem, Fisher Drug Discovery Resource Center
NPYLR7 ag – mosquito NPYLR7 agonism. AID 1259423. activation, % at 10 µM. HEK293T NPYLR7/Galpha15, GCaMP6s calcium fluorescence. actives 0.15% (n = 270,000); in the data active = activation above about 40%;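 note: 0% = vehicle and 100% = reference agonist at the receptor; some compounds past the cut are filed as inactive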
NPYLR7 ag max-min – second read-out of NPYLR7 ag, no call of its own (marks repeat the call); activation, %; measured here: Max-Min RFU normalised activation; some inactives read as strong as hits;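 span of the calcium signal over five minutes; 0% = vehicle and 100% = native peptide agonist; compound fluorescence can raise it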
* hit, by the source's call; & = joins results of further samples. The list is partial, so the mix of outcomes need not match the whole.

SMILES | NPYLR7 ag | NPYLR7 ag max-min
O=C1CC2(CCN(C(=O)OCc3nc(-c4ccc(Cl)cc4)cs3)CC2)Oc2ccc(F)cc21 | 0 | -1
Cc1nn(C)c(Cl)c1C1CCCN1c1ccc2nnnn2n1 (centres undefined) | -1 | -1
O=C(Nc1nc(-c2ccco2)cs1)c1ccccc1 | -7 | -14
COc1ccc(S(=O)(=O)N2CCN(c3ccc(F)cc3)CC2)cc1 | 5 | 2
Cc1nc(OCc2cc3c(cc2Br)OCCO3)c2ccccc2n1 | 8 | 9
Cc1nn(-c2cccc(Cl)c2)c(Cl)c1CNCCNS(C)(=O)=O | -2 | -4
CC(C)(C)c1nn2cnnc2n(/N=C\c2ccc(F)cc2)c1=O | 1 | -2
CCCCCCC(=O)Nc1cccc(C2SCC(=O)N2c2ccccc2OCC)c1 (centres undefined) | 4 | 8
CCc1nc2ccc(C(=O)N(CC)CCN(C)C)cn2c1N(C)C(=O)COc1ccccc1 | -3 | -8
COc1ccc2c(c1)SC(C)C(=O)N2Cc1ccc2c(c1)OCO2 (centres undefined) | 8 | 4
COc1cc(=O)n(-c2ccccc2)nc1C(=O)N1CCC2(CC1)OCCO2 | 3 | 1
Cc1cccc2sc(N(CCCn3ccnc3)C(=O)c3ccc(F)cc3)nc12 | -11 | -15
COc1ccc(CC(CC(=O)N2CCC3(CC2)C(=O)NCN3c2ccccc2)C(=O)N2CCC3(CC2)C(=O)NCN3c2ccccc2)cc1 (centres undefined) | -6 | -13
COc1ccc(S(=O)(=O)NCc2ccco2)c2ccccc12 | 5 | 8
O=C(Nc1ccc2c(c1)OCO2)N1CCC(n2cc(-c3cccnc3)nn2)CC1 | 5 | 4
Nc1ccnc(C(=O)N2CCCCC2c2ccc(F)cc2)c1 (centres undefined) | 0 | -3
CCOC(=O)C1CCCN(C(=O)c2cccc(CSc3nc(C)c(C)c(N4CCCC4)n3)c2)C1 (centres undefined) | -1 | 6
CCC(C(=O)Nc1cc(-c2ccc(Cl)cc2)nn1-c1ccc(Br)cc1)c1ccccc1 (centres undefined) | 18 | 1
Cc1nc2sc(C)c(C)n2c(=O)c1NC(=O)Cc1ccc(F)cc1 | 17 | 15
N#CC1(c2ccccc2)CCN(C(=O)C2CC=CCC2C(=O)NCCNc2cccc3ccccc23)CC1 (centres undefined) | -4 | -9
COCCN1CCN(C(=O)C(C)N(C)Cc2ccccc2)CC1 (centres undefined) | 2 | -1
Cc1nc(C(F)(F)F)nc(NCC2COCCN(C)C2)c1C (centres undefined) | 2 | 6
O=C(CSc1ncnc2sc3c(c12)CCCC3)NC(=O)c1ccco1 | 6 | 0
CC(C)COc1nc(-c2ccc(F)cc2)n(-c2cccc(NC(=O)c3cccc([N+](=O)[O-])c3)c2)n1 | 17 | 19
Oc1cc2c(cc1C(c1ccc(C(F)(F)F)cc1)N1CCOCC1)OCO2 (centres undefined) | 0 | -6

Single records (already shown). Values in the order: NPYLR7 ag, NPYLR7 ag max-min
Profile of COc1ccc2c(c1)SC(C)C(=O)N2Cc1ccc2c(c1)OCO2 (centres undefined) = 8, 4
Profile of Cc1nn(-c2cccc(Cl)c2)c(Cl)c1CNCCNS(C)(=O)=O = -2, -4

Additional entries.
SMILES | NPYLR7 ag | NPYLR7 ag max-min
COc1cccc(C(=O)N2CCC3(CC2)NC(=O)c2c(C)cccc2N3)c1 | 3 | 10
COCCCN(CC(=O)N1CCc2sccc2C1COc1ccccc1C)C(=O)c1ccc(OC)cc1 (centres undefined) | -4 | 1
CCCCc1cnc2c(c1SCC(=O)Nc1nc3ccc(C)cc3s1)c(=O)n(C)c(=O)n2C | 6 | 11
Cc1cc(C(=O)N(Cc2cccnc2)c2nc3ccc(F)cc3s2)n(C)n1 | 3 | -2
CC(=O)c1cc(C)c(O)c(CC2C(=O)OC(C)C2=O)c1O (centres undefined) | -5 | -17
CCN(CC)C(=O)Cn1cc(C(=O)N(C)Cc2ccccc2C(F)(F)F)nn1 | 3 | 1
Cc1ccccc1-c1cc(O)c2c(c1)CN(C(=O)[C@H](C)n1cnnn1)CCO2 | -2 | -6
CCOC(=O)C1=C(CSc2nnc(-c3ccco3)o2)NC(=O)NC1C (centres undefined) | -1 | -2
COc1ccc(Br)cc1C1=N/C(=C\C(Cl)=C\c2ccccc2)C(=O)O1 | -1 | -4
C=CCNc1ccc(C(F)(F)F)cn1 | 1 | -3
Cc1nsc(NC(=O)N2CCC(Cn3ccnc3C)CC2)n1 | 0 | 11
CN(C)S(=O)(=O)c1ccc(C(=O)Oc2coc(CSc3nccn3C)cc2=O)cc1 | -4 | -7
COC(=O)C1=C(C)NC2=C(C(=O)CCC2)C1c1ccc(Br)s1 (centres undefined) | -15 | -21
O=[N+]([O-])c1ccc(N2CCN(Cc3ccc(-c4ccccc4)cc3)CC2)cc1 | 1 | 0
N[C@@H]1CC[C@@H](NC(=O)c2n[nH]c3c2CCC3)C1 | 10 | -5
CCn1c(C2CCCN(Cc3cccn3-c3ncccn3)C2)nn(C)c1=O (centres undefined) | -4 | -6
Cc1cc(Nc2ccc3c(n2)C(=O)N(CC(=O)NCCN(C)C)C3)n(C)n1 | 8 | 3
O=C(NCCc1ccccc1)c1ccc(OC2CCN(C(=O)c3cncs3)CC2)cc1 | -26 | -24
CCN(C(=O)C1CC(=O)Nc2cc(F)ccc21)c1nc2ccccc2s1 (centres undefined) | 4 | 4
COc1ccc(CN2CC(OCc3ccccc3F)CN(C(=O)C(=O)c3ccccc3)CC2=O)cc1 (centres undefined) | 20 | 6
Cc1ccccc1Cn1cc(S(=O)(=O)CC(=O)Nc2ccccc2)c2ccccc21 | 0 | 24
COc1cccc(C2OC(c3c(C)nc4cc(C)ccn34)=NN2C(C)=O)c1 (centres undefined) | 2 | 0
CC(C)CC1COCCN1C(=O)Nc1nnc(C(C)C)s1 (centres undefined) | 0 | -2
CC1(C(=O)NS(=O)(=O)c2cccc(F)c2)CCN1C(=O)Cc1cccc2ccccc12 (centres undefined) | 5 | 3
COC(=O)C1=C(C)NC(C)=C(C(=O)OC)C1c1ccc2c(c1)OCO2 | -10 | -15
Next results follow:
SMILES | NPYLR7 ag | NPYLR7 ag max-min
CC(C)c1ccc(CC(=O)N2CCC2(C)C(=O)NS(=O)(=O)c2ccc(Cl)cc2)cc1 (centres undefined) | 3 | 2
O=S(=O)(NC1CCSc2ccc(F)cc21)c1ccc(Cl)cc1F (centres undefined) | 3 | 1
C#CCN1CCC(C(=O)Nc2cc(C(C)(C)C)nn2C2CCS(=O)(=O)C2)CC1 (centres undefined) | -3 | -2
COC1CCCN(c2nncc(-c3ccc(Cl)cc3)n2)C1 (centres undefined) | 3 | 0
CCCc1cc2c(=O)c(-c3ccc(C(=O)OCC)o3)c(C)oc2cc1OC | 1 | -4
O=C(NCc1cc(Br)ccc1F)Nc1nccs1 | -4 | -5
CCCN1C[C@H](CSC)C[C@@H]2c3cccc4[nH]cc(c34)C[C@H]21 | -11&-1&1&2 | -14&-7&-4&-13
Cc1c(NC(=O)C2CSCN2C(=O)C(C)(C)C)cccc1C(N)=O (centres undefined) | -1 | -3
COc1ccc(CN2CCC3(CC2)N=C(c2ccc(Cl)cc2)NC3=O)cc1 | -5 | -11
O=C(Nc1ccccc1F)N1CCCCC1CCc1cccc(O)c1 (centres undefined) | 2 | 9
CCOC(=O)c1nn(-c2ccc(Cl)cc2)c(=O)c2c(NC(=O)C3CCCCC3)scc12 | 11 | 5
COc1ccccc1Cn1cnc2c([nH]c3ccc(C)cc32)c1=O | -4 | -10
CO[C@]1(C)C2C=C(C)CC1c1c(nc3ccccc3c1N)C2 (some centres undefined) | 8 | 2
C#CCN(Cc1ccc(F)cc1)C(=O)Cn1c(=O)n(C)c2ccccc21 | -3 | -11
CC1=C(C(=O)OCCc2ccccc2)C(c2ccccc2C(F)(F)F)NC(=O)N1C (centres undefined) | -6 | -14
CCOC(=O)C1CCCN(C(=O)c2cccc(Nc3c(Oc4ccc5c(c4)OCO5)cnn(C)c3=O)c2)C1 (centres undefined) | -7 | -5
CC(C)Oc1ccc(S(=O)(=O)N2CCCCC2)cc1NC(=O)CSc1nncn1C1CC1 | -4 | -3
Cc1cccnc1CN1CCN(CC(C)c2ccccc2)CC1 (centres undefined) | -3 | -5
CCCCCCC1CCC(c2noc(-c3ccc([N+](=O)[O-])cc3)n2)CC1 (centres undefined) | 2 | -3
CC(C)n1c(N)nnc1SCCN(C)c1ccccc1 | 8 | 6
COc1cccc(-c2cn[nH]c2C2CCN(C(=O)CCn3cncn3)CC2)c1 | 1 | -1
C=CCn1c2ccccc2n2c(C(C)=O)c(-c3ccccc3)nc12 | -14 | -21
CNC(=O)COc1coc(CN2CCN(Cc3ccccc3)CC2)cc1=O | -1 | 0
CNc1nc(CN2CCCC3(C2)CN(C)C(=O)O3)cs1 (centres undefined) | -2 | 15
CCOC(=O)/C=C/C(=O)n1nc(C)cc1C | -4 | 13
New compounds follow
SMILES | NPYLR7 ag | NPYLR7 ag max-min
CC1(C)O[C@@H]2C[C@@](OCc3cccc(C(F)(F)F)c3)(C(=O)NC3CC3)CC(OCc3cccc(F)c3F)[C@@H]2O1 (some centres undefined) | 7 | 17
Cc1sc(NC(=O)c2cccc(N3CCCC3=O)c2)nc1-c1ccccc1 | 2 | 4
COc1ccccc1C(=O)N(CC(=O)N1CCc2sccc2C1COc1ccc(Cl)cc1)CC(C)C (centres undefined) | 17 | 15
CC(C)C(Sc1nnc(-c2cccc(Cl)c2)o1)C(=O)N(C)C (centres undefined) | -6 | -7
CC(C)(C)c1ccc(C(=O)N2CCC(n3nccc3NC(=O)c3cccc(F)c3)CC2)cc1 | 13 | 8
COCCn1c(Cc2ccccc2)nn(CN2CCCC2c2cc(OC)ccc2OC)c1=S (centres undefined) | 3 | 1
CNc1nc(N2CCC(Cc3nnc(SC)n3C)CC2)nc2c1CCC2 | -5 | -7
CN(CCCNC(=O)CCC(=O)N1CCc2ccccc21)c1ccccc1 | -8 | -9
CCOc1ccc(-c2ccc(=O)n(CCNC(=O)C3c4ccccc4Oc4ccccc43)n2)cc1 | -2 | -2
CCc1ccc(S(=O)(=O)N2CCN(c3ccc4nnc(-c5ccco5)n4n3)CC2)cc1 | 3 | 8
COc1ccc(-c2cc(C(=O)NCc3cccnc3)n3nc(C(C)(C)C)cc3n2)cc1 | -7 | 1
O=C(NCc1cn2cc(Br)ccc2n1)Nc1cccc2c1OCCO2 | 7 | 378
O=C(COc1ccc2c(c1)OCO2)NCCCn1ncccc1=O | -10 | -14
O=C1c2ccccc2C(=O)c2cc(S(=O)(=O)N3CCCCCC3)ccc21 | -10 | -16
Cc1ccccc1N1CCN(C2CCCN(C(=O)c3ccc(-c4ccco4)cc3)C2)CC1 (centres undefined) | 14&-3 | 2&-4
COc1ccccc1-n1ncc2c(C)n[nH]c(=S)c21 | 0 | -3
CCOC(=O)C1=C(C)NC(C)=C(C(=O)OC)C1c1ccco1 (centres undefined) | -7 | -15
CCOC(=O)Nc1cccc(NC(=O)NCC(C)(O)CC)c1C (centres undefined) | -6 | -7
Cc1sc(NC(=O)Cn2cnc([N+](=O)[O-])n2)c(C(N)=O)c1C | -11 | -18
COCC(=O)Nc1ccc(N2CCN(C(=O)NCC3CCCCC3)CC2)nc1 | 26 | 31
CC(CCc1ccccc1)NC(=O)c1cc(=O)c(OCc2ccccc2)co1 (centres undefined) | -2 | -4
Cc1ncsc1CCn1ccnc1-c1cnc(-c2cccs2)nc1 | 3 | 3
Nc1ccc2c(c1)S(=O)(=O)N=C(C1CCCC1)N2c1ccccc1 | 23 | 16
Cc1ccc(C)c(-c2[nH]ncc2C2NCCc3[nH]cnc32)c1 (centres undefined) | 0 | -1
COC(=O)c1cc(C)nc(N2Cc3cnn(CCO)c3C2)n1 | -7 | -8

Of the compounds above, 4 contain a nitro group on carbon.
SMILES | NPYLR7 ag | NPYLR7 ag max-min
CC(C)COc1nc(-c2ccc(F)cc2)n(-c2cccc(NC(=O)c3cccc([N+](=O)[O-])c3)c2)n1 | 17 | 19
O=[N+]([O-])c1ccc(N2CCN(Cc3ccc(-c4ccccc4)cc3)CC2)cc1 | 1 | 0
CCCCCCC1CCC(c2noc(-c3ccc([N+](=O)[O-])cc3)n2)CC1 (centres undefined) | 2 | -3
Cc1sc(NC(=O)Cn2cnc([N+](=O)[O-])n2)c(C(N)=O)c1C | -11 | -18

Back to the main list, repeating the 6 entries before the break.
SMILES | NPYLR7 ag | NPYLR7 ag max-min
COCC(=O)Nc1ccc(N2CCN(C(=O)NCC3CCCCC3)CC2)nc1 | 26 | 31
CC(CCc1ccccc1)NC(=O)c1cc(=O)c(OCc2ccccc2)co1 (centres undefined) | -2 | -4
Cc1ncsc1CCn1ccnc1-c1cnc(-c2cccs2)nc1 | 3 | 3
Nc1ccc2c(c1)S(=O)(=O)N=C(C1CCCC1)N2c1ccccc1 | 23 | 16
Cc1ccc(C)c(-c2[nH]ncc2C2NCCc3[nH]cnc32)c1 (centres undefined) | 0 | -1
COC(=O)c1cc(C)nc(N2Cc3cnn(CCO)c3C2)n1 | -7 | -8
O=C(NCCN1CCCC(c2ccccc2)C1)c1cn(C2CCCCC2)nn1 (centres undefined) | 14 | 1
CC(C(=O)NCCc1cccc(Cl)c1)n1cncn1 (centres undefined) | 8 | 7
COC(=O)c1c(NC(=O)Cn2nc(C(F)(F)F)cc2C)sc2c1CCCC2 | -1 | -7
COc1ccc(Cl)cc1CNC(=O)CSCc1cc(C)no1 | 8 | 4
CCOC(=O)c1c(C)c(C(=O)NC2CCCC2)c(C)n1CC | 11 | 14
COCCN(Cc1ccc(OC)c(OS(=O)(=O)c2cccc(C(F)(F)F)c2)c1)C(=O)Nc1c(C(C)C)cccc1C(C)C | -1 | 7
CCc1cccc(C)c1NC(=O)CCc1ccc2c(c1)OCO2 | 1 | 2
O=C(NCCc1ccccn1)c1cc2n(n1)CCN(CC1CC1)C2=O | 3 | 4
Cn1c(=NC(=O)c2nc3ccccc3s2)sc2cc(S(C)(=O)=O)ccc21 | 0 | 4
Cc1cccc(CN2C(=O)C3(SCCN3C(=O)c3ccco3)c3cc(C)ccc32)c1 (centres undefined) | 5 | 7
